GIRK2 activ – opens human GIRK2 potassium channels. HEK293-GIRK2 thallium flux, Thallos fluorescence. calls only for hits at 25 µM. 63,000 compounds, 0.05% hits. P48051. AID 1259325;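 active means among the strongest 0.2% of first-round signals and kept after retests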;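 further: first round at about 10 µM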
Target sequence (P48051 whole entry, looked up): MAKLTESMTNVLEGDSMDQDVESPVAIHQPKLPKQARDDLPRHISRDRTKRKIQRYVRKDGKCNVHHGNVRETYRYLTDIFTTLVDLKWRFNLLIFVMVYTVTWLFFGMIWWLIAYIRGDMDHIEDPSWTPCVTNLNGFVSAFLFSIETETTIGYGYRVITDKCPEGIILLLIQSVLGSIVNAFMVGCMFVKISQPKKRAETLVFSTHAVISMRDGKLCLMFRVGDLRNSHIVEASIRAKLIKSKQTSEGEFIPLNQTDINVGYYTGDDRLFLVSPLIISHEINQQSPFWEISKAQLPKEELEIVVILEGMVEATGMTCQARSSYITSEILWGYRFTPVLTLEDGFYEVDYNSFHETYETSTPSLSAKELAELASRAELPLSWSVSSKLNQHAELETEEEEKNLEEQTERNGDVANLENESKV
Calls only; i = inactive. The list is partial (hit frequency here may not be typical).

GIRK2 activ	SMILES
i	O=C(NCCc1ccccc1)C1CCN(c2ncccc2-c2nc(-c3ccccc3)no2)CC1
i	CCCOc1ccc(S(=O)(=O)N2CCCCC2)cc1C
i	CCCS(=O)(=O)NCCc1csc(-n2nc(C)cc2C)n1
i	Cc1ccc2c(c1)C(O)(CC(=O)c1ccco1)C(=O)N2 (centres undefined)
i	COc1ccc(CC(=O)Nc2cc(C)nc3c(C)cc(C)cc23)cc1OC
i	O=C(Nc1cccc2ccc(-n3ccnc3)nc12)c1ccc2nsnc2c1
i	Cc1ccc(-c2ccc(N3CCN(C(=O)c4cc5ccccc5oc4=O)CC3)nn2)cc1
i	COc1ccc(C=O)cc1Cn1c(=O)n(CCCCC(=O)NCc2ccco2)c(=O)c2ccccc21
i	CCOc1ccc(-n2c(=S)sc3c(=O)[nH]c(SCc4ccccc4)nc32)cc1
i	Cc1cc(NC(=O)CN2CCN(CC(=O)c3cccs3)CC2)no1

Other results follow.
GIRK2 activ	SMILES
i	Cc1cc2nn(CC(=O)Nc3cccc(Cl)c3F)c(=O)n2c(-c2ccc(F)cc2)n1
i	CCOCCn1c(=NC(=O)c2ccn(C)n2)sc2cc(C)c(C)cc21
i	COC(=O)c1ccc(Cn2cc(-c3nc(-c4ccsc4)no3)ccc2=O)o1
i	Cc1cn2c3c(=O)[nH]c(=O)n(C)c3nc2n1CCN1CCOCC1
i	O=C(CCc1nc2sc3c(c2c(=O)[nH]1)CCCCC3)Nc1ccc(F)c(Cl)c1
i	CCCCCCC[C@H](O)/C=C/[C@@H]1[C@@H](C/C=C\CCCC(=O)O)[C@@H](O)C[C@H]1O
i	CCCCn1c(=O)c2c(nc3n2CCCN3c2cc(C)ccc2OC)n(C)c1=O
i	COc1ccc(NC(=O)Cn2cccc(-c3nc(-c4ccc(OC)c(OC)c4)no3)c2=O)cc1Cl
i	COc1cccc(-c2cc(=O)[nH]c(SCc3nc(-c4ccc5c(c4)OCO5)no3)n2)c1
i	CCCCN1CC(c2nc3ccccc3n2CCCOc2ccc(Cl)cc2)CC1=O (centres undefined)

Copied from above for reference:
GIRK2 activ	SMILES
i	CCCCn1c(=O)c2c(nc3n2CCCN3c2cc(C)ccc2OC)n(C)c1=O
i	COc1ccc(NC(=O)Cn2cccc(-c3nc(-c4ccc(OC)c(OC)c4)no3)c2=O)cc1Cl
i	COc1cccc(-c2cc(=O)[nH]c(SCc3nc(-c4ccc5c(c4)OCO5)no3)n2)c1
i	CCCCN1CC(c2nc3ccccc3n2CCCOc2ccc(Cl)cc2)CC1=O (centres undefined)

(list continues)
GIRK2 activ	SMILES
i	O=C(Cn1nc(-c2ccco2)c2sc(N3CCCC3)nc2c1=O)Nc1ccc2c(c1)OCO2
i	CSCCC(C)(O)CNC(=O)Nc1ccccc1Cl (centres undefined)
i	CS(=O)(=O)N1CCC(C(=O)NCCn2cnc(-c3ccc(F)cc3)cc2=O)CC1
i	Cc1cc(C)n(C(C)CNC(=O)c2ccccc2)n1 (centres undefined)
i	COc1cccc(Nc2nccc(-c3cnn4ncccc34)n2)c1
i	Cc1cc(S(=O)(=O)NCC#CCN2CCCC2)c(Cl)cc1Cl
i	CCCNC(=O)Cn1nc(-c2ccc(F)cc2)c2sc(C)nc2c1=O
i	O=C(NC1CCN(C(=O)c2cn(-c3ccc(Cl)cc3)nn2)CC1)c1ccccc1
i	O=C(c1ccc(F)cc1F)N1CCN(c2ccc3nncn3n2)CC1
i	COc1ccccc1N1CCN(CCNC(=O)NCc2cccs2)CC1

The results go on.
GIRK2 activ	SMILES
i	COC(=O)c1ccccc1N(C)C(=O)c1cc2n(n1)CCCO2
i	Cc1ccc2[nH]c3c(=O)n(CCC(=O)N4CCN(c5ccccc5Cl)CC4)cnc3c2c1
i	CCOC(=O)c1c(S(=O)(=O)Nc2ccc(C(F)(F)F)cc2)n[nH]c1C
i	COCC(=O)N1CCC(Oc2cccnc2)CC1
i	CCOC(=O)c1c(S(=O)(=O)Nc2cccc(Br)c2)n[nH]c1C
i	O=C(c1cnn2c(-c3ccncc3)ccnc12)N1CCN(c2ccccn2)CC1
i	O=C(COc1ccc2c(c1)OCO2)Nc1cc(-n2ccc3ccccc32)ncn1
i	CCCCc1ccc(NC(=O)c2cc(=O)c(OCc3ccccc3)cn2C)cc1
i	COc1cccc(C(=O)Nc2sc3c(c2-c2nc4ccccc4s2)CCN(C(C)=O)C3)c1
i	O=C(Nc1nc2c(s1)COCC2)c1ccc(=O)[nH]c1

A draw from above in order of count of non-hydrogen atoms, lowest first.
GIRK2 activ	SMILES
i	COCC(=O)N1CCC(Oc2cccnc2)CC1
i	CCOC(=O)c1c(S(=O)(=O)Nc2cccc(Br)c2)n[nH]c1C
i	COC(=O)c1ccccc1N(C)C(=O)c1cc2n(n1)CCCO2
i	CCOC(=O)c1c(S(=O)(=O)Nc2ccc(C(F)(F)F)cc2)n[nH]c1C
i	CCCCc1ccc(NC(=O)c2cc(=O)c(OCc3ccccc3)cn2C)cc1
i	Cc1ccc2[nH]c3c(=O)n(CCC(=O)N4CCN(c5ccccc5Cl)CC4)cnc3c2c1

Next part.
GIRK2 activ	SMILES
i	CC(=O)c1ccc(N2CCN(C(=O)c3ccc(-n4cccn4)nc3)CC2)cc1
i	CC1(C)CC(=O)C2=C(C1)Nc1[nH]c(=O)[nH]c(=O)c1C2c1ccc(-c2nc3ccccc3s2)o1 (centres undefined)
i	COc1ccc(OC)c(NC(=O)CSc2cc(N3CCN(c4ccccc4OC)CC3)ncn2)c1
i	COc1ccc(CNc2nc3c(S(=O)(=O)c4ccccc4)nnn3c3ccc(Cl)cc23)cc1
i	O=C(Nc1nc2c(s1)CN(S(=O)(=O)C1CC1)CC2)c1cccc(Cl)c1
i	O=C(Nc1cnccn1)c1ccc(S(=O)(=O)N2CCCCCC2)cc1
i	Cc1onc(-c2ccccc2Cl)c1C(=O)N1CCC(CSC2=NCCS2)CC1
i	O=c1cc(CN2CCN(CCO)CC2)c2cc(O)c(-c3ccccc3)cc2o1
i	COc1ccc(N2C(=O)C3N=NN(CC(=O)Nc4cccc(C(F)(F)F)c4)C3C2=O)cc1 (centres undefined)
i	Cc1nn(C)cc1C(=O)N1CCN(c2ccccc2F)CC1

(cont.)
GIRK2 activ	SMILES
i	NC(=O)CSc1nnc(N2CCN(C(=O)CCc3ccccc3)CC2)s1
i	CNS(=O)(=O)Cc1ccc2[nH]cc(CCN(C)C)c2c1
i	COc1ncccc1C(=O)Nc1nc2c(s1)CN(S(=O)(=O)C1CC1)CC2
i	C#CCn1c(=NC(=O)CSC(C)=O)sc2cc(F)ccc21
i	CCOC(=O)c1c(NC(=O)C2CCN(S(=O)(=O)c3ccc(OC)cc3)CC2)sc2c1CCC2
i	Cc1nnc(C2CCN(C(=O)C3CC(=O)N(c4cccc(Br)c4)C3)CC2)s1 (centres undefined)
i	O=C(NCC1CCCO1)c1ccc(CNS(=O)(=O)c2cccc(C(F)(F)F)c2)cc1 (centres undefined)
i	Cn1c(=O)c(C(=O)Nc2cc(C(F)(F)F)ccc2Cl)c(O)c2sccc21
i	Cc1ccc2c(Nc3ccc(C)c(C)c3)c(C(=O)N3CCOCC3)cnc2n1
i	C=Cc1ccc(COc2ccc(-c3nc(N)ncc3Oc3ccccc3OC)c(O)c2)cc1

Remaining list, next part.
GIRK2 activ	SMILES
i	COc1ccc(C(=O)N2CCN(c3oc(/C=C/c4ccccc4)nc3C#N)CC2)cc1
i	O=C(Nc1nc(-c2cccnc2)cs1)C1CCN(S(=O)(=O)c2ccc(Cl)s2)CC1
i	COc1ccc(C)cc1N1CCn2c1nc1c2c(=O)n(Cc2ccc(F)cc2)c(=O)n1C
i	COc1ccc(CNC(=O)C(=O)NCCC2CCCCN2S(=O)(=O)c2ccc(F)cc2C)cc1 (centres undefined)
i	O=C(Nc1nnc(-c2ccsc2)o1)c1ccccn1
i	COc1ccc(-n2ccn(CC(=O)Nc3c(C)cc(C)cc3C)c(=O)c2=O)cc1
i	O=C(NCCCS(=O)(=O)N1CCc2ccccc2C1)c1ccc(-c2ccccc2)cc1
i	CC(C)NC(=O)Cn1nc2n(Cc3ccccc3)c(=O)c3ccc(C(=O)NC(C)C)cc3n2c1=O
i	COc1ccc2c(c1)c(CC(=O)NCc1ccncc1)c(C)n2C(=O)c1ccc(Cl)cc1
i	COc1ccc(/C=C/C(=O)NCc2ccccc2)cc1Br

The list goes on:
GIRK2 activ	SMILES
i	CC(C)CCC(O)C(C)C1CCC2C3CC=C4C[C@@H](O)CC[C@]4(C)C3CC[C@]12C (some centres undefined)
i	COc1cc(OC)cc(-c2noc(-c3cn[nH]c3-c3ccccc3)n2)c1
i	Cc1nnsc1C(=O)Nc1sccc1C#N
i	CCCc1nnsc1C(=O)Nc1nnc(-c2ccc(F)cc2F)o1
i	COCC(=O)N1CCCC1c1nc(C)no1 (centres undefined)
i	CN(C)S(=O)(=O)c1ccc(C(=O)NCC#CCOc2cccc(C(F)(F)F)c2)cc1
i	Cc1ccc(NC(=O)CCNS(=O)(=O)c2ccc(C)c(N(C)S(C)(=O)=O)c2C)cc1
i	C#CCn1c(=NC(=O)c2cc(C)no2)sc2cc3c(cc21)OCCO3
i	O=C(Cc1ccc(-c2ccccc2)cc1)NCC(O)c1ccoc1 (centres undefined)
i	Cc1oc(-c2ccc(Cl)cc2)cc1C(=O)N1CCOCC1

Later entries
GIRK2 activ	SMILES
i	Cc1ccccc1N1C(=O)CC(N2CCN(c3ccc(F)cc3)CC2)C1=O (centres undefined)
i	CSc1ccc(CNC(=O)CCc2nnc3c(N4CCCCC4)nc4ccccc4n23)cc1
i	CCCCC/C=C\C/C=C\C/C=C\C/C=C\CCCCN1C(=O)C=CC1=O
i	CCN(CC)S(=O)(=O)c1ccc(NC(=O)CN2CCCCCC2)cc1
i	CN(C)C(CNC(=O)Nc1ccccc1Cl)c1cn(C)c2ccccc12 (centres undefined)
i	COC(=O)C1CCN(C(=O)CNC(=O)CC23CC4CC(CC(C4)C2)C3)CC1
i	COC(=O)c1ccc(CN2CCC(COCc3ccc(F)cc3)CC2)o1
i	Cc1cc(C)nc(SCNC(=O)c2cccs2)n1
i	COc1ccc(CCNC(=O)CCc2nc3sc4c(c3c(=O)[nH]2)CCCCC4)cc1OC
i	CC(NC(=O)c1nnn(-c2ccc(Cl)cc2)c1-c1cccnc1)c1ccccc1 (centres undefined)

Further compounds follow.
GIRK2 activ	SMILES
i	NC(=O)c1ccc(NC(=O)CCn2c(=O)oc3ccc(Cl)cc32)cc1
i	Cc1ccc(C(C)C)c(OCC(O)Cn2c(N3CCN(C)CC3)nc3c2c(=O)n(C)c(=O)n3C)c1 (centres undefined)
i	O=C(NCC(F)(F)F)c1nnn(-c2ccc(NC(=O)C3CC(=O)N(c4ccc(F)cc4)C3)cc2)n1 (centres undefined)
i	CCOC(=O)N1CCc2c(sc(NC(=O)c3cccc(F)c3)c2-c2nc3ccccc3s2)C1
i	CCN1CCN(c2nc3c(c(=O)[nH]c(=O)n3C)n2CC)CC1
i	COc1ccccc1Oc1c(C)oc2cc(OC(=O)c3ccco3)ccc2c1=O
i	COc1cc(C(=O)N2CCN(Cc3nc(C(C)(C)C)cs3)CC2)cc(OC)c1OC
i	O=C(Nc1ccc(Cl)c2ncsc12)c1cc2cc([N+](=O)[O-])ccc2s1
i	Cc1[nH]c(=O)n(C)c(=O)c1CCc1nnc(SCC(=O)NCc2ccc(F)cc2)o1
i	COc1ccc(-n2cc(-c3nc(-c4ccccc4OC)no3)c3ccccc3c2=O)cc1

Later entries
GIRK2 activ	SMILES
i	NS(=O)(=O)c1cccc(-c2cc3ccncc3cc2OCc2ccccc2)c1
i	CC(=O)Nc1ccc(C(=O)N2CCN(C(=O)C3CC3c3ccccc3)CC2)cc1 (centres undefined)
i	COc1ccc(Nc2c(C(=O)N3CCC(C)CC3)cnc3nc(C)ccc23)cc1OC
i	COc1ccc(CC(C)(O)CNC(=O)c2ccc3nsnc3c2)cc1 (centres undefined)
i	COc1ccc(NC(=O)c2cc(=O)c(OCc3ccccc3)co2)cc1Cl
i	O=C(CSc1nc2ccccc2o1)N1CCCCCC1
i	COc1ccc(S(=O)(=O)N2CCCC2CNC(=O)C(=O)NCCc2ccc(F)cc2)cc1 (centres undefined)
i	CCN(CC)C(=O)Oc1ccc2c(c1)O/C(=C\c1ccc(OC)cc1)C2=O
i	CCOc1ccc(N2N=NC3C(=O)N(c4cccc(SC)c4)C(=O)C32)cc1 (centres undefined)
i	CSc1ccccc1C(=O)NCc1cc(-c2ccncc2)n(C)n1

New compounds follow.
GIRK2 activ	SMILES
i	Cc1ccc(-n2nnc(C(=O)Nc3ccc(Br)cc3F)n2)cc1
i	COc1ccc(CCC(=O)Nc2nc(CN3CCc4ccccc4C3)cs2)cc1
i	CCc1ccc(C(=O)c2cn(CC(=O)Nc3ccc4c(c3)OCO4)c3ccc(OC)cc3c2=O)cc1
i	O=C(Nc1nc2ccc(Cl)cc2s1)c1cnn2c1OCCC2
i	COc1ccc(CCN2C(=O)C3C4C=CC(O4)C3C2=O)cc1OC (centres undefined)
i	Cc1ccnc(Nc2cc(N3CCN(C(=O)c4ccc(F)cc4Cl)CC3)ncn2)c1
i	Cc1cccc(NC(=O)C2=Cc3ccccc3OC2)c1
i	CNC(=O)CSc1ncc(-c2ccc(Br)cc2)n1-c1ccc(F)cc1
i	Cc1nn(-c2ccc(F)cc2)c2ncc(C(=O)N(C)CCC#N)c(Cl)c12
i	Cc1[nH]c(=O)[nH]c(=O)c1CCc1nnc(SCC(=O)c2ccc(Cl)cc2)o1

The list goes on:
GIRK2 activ	SMILES
i	O=C(Nc1ccc(-n2cnnn2)cc1)c1cc2n(n1)CCCO2
i	Cc1ccc(C)c(-c2nnc(NC(=O)CN3C(=O)c4ccccc4C3=O)o2)c1
i	COc1nn(C)cc1C(=O)Nc1ccc(C(=O)Nc2nc(C)c(C(=O)N(C)C)s2)cc1
i	O=C(Cn1c(=O)oc2ccccc21)N1CCC(Oc2ncccc2Cl)CC1
i	CC(C)=CC(=O)Nc1nc(-c2cccc(Br)c2)cs1
i	CC(=O)SCC(=O)N=c1sc2cc(C)ccc2n1C

Screening results from PubChem BioAssay.
